Source: PubChem (Broad Institute)
FGF22 binding – binders of human FGF22 protein, primary screen, FGF22 synaptogenesis inhibitor project, biophysical, thermal shift, single point | Fibroblast growth factor 22 (Homo sapiens), Q9HCT0 | recombinant FGF22 thermal shift, SYPRO orange fluorescence; percent of sucrose octasulfate shift, DMSO zero | calls only at 9.99 µM | 340,000 compounds, 1.5% hits | AID 651658, 2012;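 active means melting point raised past a set limit in the mean and every replicate; three in four hits are not shown here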
Target sequence (Q9HCT0 whole entry, looked up): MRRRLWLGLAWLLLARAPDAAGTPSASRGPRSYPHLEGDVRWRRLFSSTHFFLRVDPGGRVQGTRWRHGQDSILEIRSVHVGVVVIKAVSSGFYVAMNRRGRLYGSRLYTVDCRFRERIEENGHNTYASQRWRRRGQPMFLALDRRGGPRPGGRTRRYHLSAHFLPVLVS
Ecoli rRNA inh – reduced GFP signal of wild-type E. coli, primary screen, bacterial rRNA inhibitor project, GFP/RFP fluorescence, OD600, single point. GFP signal change (wild-type ribosome), % (no concentration beside the values). E. coli WT GFP vs humanized-ribosome RFP mutants, 24 h; hits give low values; DMSO median 0, no signal -100. 350,000 compounds, 1.6% hits;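 active means significant combined selectivity score with lowered wild-type GFP, culture density cut under 30%, mutant RFP and density less affected; inactive means any of these conditions unmet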; further: one replicate is shown; some compounds called inactive have numbers as strong as hits
Ecoli rRNA inh OD600 – also measured in Ecoli rRNA inh; calls as there; OD600 change, %; measured here: OD600 growth;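 optical density of the mix in the first replicate; 0 = DMSO median and -100 = no signal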
Ecoli rRNA inh RFP – also measured in Ecoli rRNA inh; calls as there; RFP signal change, %; measured here: RFP humanized mutant strains;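 first replicate; 0 = DMSO median and -100 = no signal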
Active calls of the source: *; i = inactive. Some of the compounds tested; the hit share may differ from the screen's.

SMILES	FGF22 binding	Ecoli rRNA inh	Ecoli rRNA inh OD600	Ecoli rRNA inh RFP
C[C@@H]1CN([C@H](C)CO)C(=O)c2cc(NC(=O)Cn3cnnn3)ccc2O[C@H]1CN(C)S(=O)(=O)c1cccs1	i	1.5	11.9	2.7
O=C(N[C@H]1CC[C@H](CCNC(=O)C2CC2)O[C@H]1CO)c1ccccn1	i	1.3	-2.4	-1.7
Cc1noc(C)c1S(=O)(=O)N(C)C[C@@H]1Oc2ccc(NC(=O)Nc3ccc(F)cc3)cc2CC(=O)N([C@H](C)CO)C[C@@H]1C	i	1.2	-14.0	1.6
C[C@H](CO)N1C[C@H](C)[C@@H](CN(C)S(=O)(=O)c2ccc(Cl)cc2)Oc2c(NC(=O)Nc3cccc4ccccc34)cccc2C1=O	i	1.8	1.4	-2.2
C[C@H]1CN([C@@H](C)CO)C(=O)c2cc(NS(=O)(=O)c3cccs3)ccc2O[C@H]1CN(C)Cc1ccc2c(c1)OCO2	i	0.6	5.4	2.4
CO[C@@H]1CC[C@H]2CCOc3c(C#N)cccc3C(=O)N(C)C[C@H](C)C(=O)N(C)C[C@@H]1O2	i	3.1	3.5	-1.9
COc1ccc2c3c(n(C)c2c1)[C@@H](CO)N(C(=O)Nc1ccc(F)cc1)CC31CN(C(=O)CN2CCOCC2)C1	i	-3.9	-2.5	-5.0
C[C@H]1CNC(=O)c2c(C(=O)N(C)Cc3ccccc3)ncn21	i	9.8	-0.9	0.6
COC(=O)N1C[C@H](O)[C@H](O)C[C@@H]1c1ccccc1Br	i	6.6	9.2	-0.6
CCNC(=O)[C@@H]1[C@@H](CO)[C@@H]2Cn3c(ccc(-c4ccc(OC)cc4)c3=O)[C@H]1N2CC	i	2.5	13.6	-0.7
CCCNC(=O)Nc1ccc2c(c1)OC[C@@H](C)N(C(=O)C1CCC1)C[C@H](C)[C@@H](OC)CN(C)C2=O	i	1.0	2.6	-0.5
CO[C@@H]1CN(C)C(=O)c2ccc(NC(=O)c3ccccc3F)cc2OC[C@@H](C)N(C(C)=O)C[C@@H]1C	i	-1.0	3.6	-3.6
CCNC(=O)N1C[C@H]2CON(C)[C@H]2C[C@H]1c1ccc(N2CCCCC2)cc1	i	36.7	41.4	5.8
C[C@@H]1CN([C@@H](C)CO)C(=O)c2cccc(N(C)C)c2O[C@H]1CN(C)C(=O)Nc1ccc(C(F)(F)F)cc1	i	-4.0	-5.6	-0.9
O=C(NCC1CCCCC1)[C@H]1[C@H](CO)[C@H]2Cn3c(cccc3=O)[C@@H]1N2C(=O)c1ccncc1	i	1.5	2.7	-0.9
Cc1noc(C)c1S(=O)(=O)Nc1ccc2c(c1)CC(=O)N([C@@H](C)CO)C[C@H](C)[C@@H](CN(C)Cc1ccc(C(=O)Nc3ccccc3N)cc1)O2	i	-4.3	-0.9	-0.9
C[C@H]1CCCCO[C@H](CN(C)C(=O)c2ccncc2)[C@@H](C)CN([C@@H](C)CO)C(=O)c2cc(NC(=O)Cc3ccccc3)ccc2O1	i	-0.7	11.5	-2.6
COCC(=O)N(C[C@@H]1N[C@@H](CO)[C@H]1c1ccc(-c2ccccc2)cc1)C(C)C	i	0.0	5.3	5.6
C[C@@H]1CCCCO[C@@H](CN(C)S(C)(=O)=O)[C@H](C)CN([C@@H](C)CO)C(=O)c2cc(NS(=O)(=O)c3cccs3)ccc2O1	i	0.4	-0.3	-1.8
C[C@@H]1CCCCO[C@@H](CN(C)C(=O)Cc2ccccc2)[C@@H](C)CN([C@@H](C)CO)C(=O)c2cc(NC(=O)C3CCCCC3)ccc2O1	i	2.0	0.9	-1.8
CCCN1C[C@H](C)[C@@H](OC)CN(C)C(=O)c2ccc(NC(=O)c3ccccc3F)cc2OC[C@@H]1C	i	1.7	-5.8	0.0
COc1ccc(NC(=O)Nc2cccc3c2O[C@H](CN(C)S(=O)(=O)c2ccccc2)[C@H](C)CN([C@H](C)CO)C3=O)cc1	i	-1.6	-4.5	1.8
Cc1ccc(S(=O)(=O)N(C)C[C@@H]2OCCCC[C@@H](C)Oc3ccc(NS(=O)(=O)c4ccccc4)cc3C(=O)N([C@H](C)CO)C[C@@H]2C)cc1	i	0.0	0.6	0.7
O=C(CCN1CCCCC1)N[C@H]1CC[C@@H](CCNS(=O)(=O)c2ccccc2)O[C@H]1CO	i	3.4	17.9	-4.9
O=C(C[C@H]1CC[C@H]2[C@@H](COC[C@H](O)CN2C(=O)Nc2ccc(F)cc2)O1)NC1CCC1	i	2.3	8.4	-1.9
(next part)
SMILES	FGF22 binding	Ecoli rRNA inh	Ecoli rRNA inh OD600	Ecoli rRNA inh RFP
Cc1noc(C)c1S(=O)(=O)N(C)C[C@@H]1OCCCC[C@@H](C)Oc2ccc(NC(=O)Cc3ccccc3)cc2C(=O)N([C@H](C)CO)C[C@H]1C	i	-1.1	-4.4	-1.4
COc1cccc(-c2ccc3c(c2)O[C@@H](CN(C)C(=O)C2CC2)[C@H](C)CN([C@@H](C)CO)S3(=O)=O)c1	i	-0.7	-12.5	1.7
CC(C)(C)S(=O)N1C[C@@H]2CC(=O)C=C2[C@H]1CCO (stereo partly drawn)	i	7.3	14.6	-1.9
CN1C(=O)c2cc(NC(=O)Nc3ccccc3)ccc2OC[C@H]2O[C@@H](CC(=O)NC3CCC3)CC[C@H]21	i	-3.6	-12.8	2.2
CCNC(=O)C[C@H]1CC[C@@H]2[C@@H](COc3ccc(NC(=O)c4ccc(F)cc4)cc3C(=O)N2C)O1	i	3.7	1.1	-0.6
COc1ccc(S(=O)(=O)Nc2ccc3c(c2)C(=O)N([C@H](C)CO)C[C@@H](C)[C@H](CN(C)S(C)(=O)=O)O3)cc1	i	-2.5	-3.2	-1.9
CCCC(=O)N1CC2(CN(C(=O)CC3CC3)C2)c2c(n(C)c3cc(OC)ccc23)[C@@H]1CO	i	1.5	3.4	0.4
O=C(C[C@@H]1CC[C@@H]2[C@H](COC[C@@H](O)CN2Cc2ccccc2F)O1)N[C@H]1CCN(Cc2ccccc2)C1	i	2.1	0.9	-0.6
COc1cccc(NC(=O)N[C@H]2CC[C@H](CC(=O)NCc3ccccn3)O[C@H]2CO)c1	i	4.1	-1.7	-0.5
CNC(=O)C[C@H]1CC[C@@H]2[C@H](COC[C@@H](O)CN2Cc2ccc(C(F)(F)F)cc2)O1	i	1.5	6.5	-5.0
O=C(Cc1ccccn1)N[C@H]1C=C[C@H](CC(=O)N2CCCCC2)O[C@@H]1CO	i	-0.7	7.4	-1.2
CCCC#Cc1ccc2c(c1)O[C@H](CN(C)C)[C@@H](C)CN([C@H](C)CO)S2(=O)=O	i	1.5	2.3	-2.5
C[C@@H]1CCCCO[C@H](CN(C)CC2CC2)[C@@H](C)CN([C@@H](C)CO)C(=O)c2cc(NS(=O)(=O)c3ccc(F)cc3)ccc2O1	i	1.8	-6.8	2.2
CCCNC(=O)N[C@@H]1CC[C@@H](CCn2cc(C3CC3)nn2)O[C@H]1CO	i	0.1	6.3	-0.1
COc1ccc(NC(=O)Nc2ccc3c(c2)C(=O)N([C@H](C)CO)C[C@H](C)[C@H](CN(C)Cc2ccc4c(c2)OCO4)OCCCC[C@H](C)O3)cc1	i	-39.0	-44.2	17.3
Cn1cnc(S(=O)(=O)N2CCCCN3[C@H](CO)[C@H](c4ccc(-c5ccc(F)cc5)cc4)[C@H]3C2)c1	i	-1.5	4.2	4.3
Cc1ccc(S(=O)(=O)N2CC[C@@H]3[C@H]2c2cc(-c4ccc(C#N)cc4)ccc2N[C@@H]3CO)cc1	i	-5.0	5.7	1.0
CN1C(=O)c2cc(NC(=O)Nc3ccccc3F)ccc2OC[C@H]2O[C@@H](CC(=O)O)CC[C@H]21	i	-0.3	5.3	-0.1
COCC#Cc1cnc2c(c1)C(=O)N([C@@H](C)CO)C[C@H](C)[C@@H](CN(C)C(=O)Nc1ccccc1F)O2	i	-2.1	0.6	-1.5
CC(C)[C@H](C)NC(=O)N(C)C[C@H]1OCc2ccccc2-c2c(n(C)c3ccccc23)C(=O)N([C@@H](C)CO)C[C@H]1C	i	2.6	2.0	-3.4
C[C@@H]1CN([C@@H](C)CO)C(=O)Cc2cc(N(C)C)ccc2O[C@H]1CN(C)C	i	3.5	12.1	1.2
C[C@@H]1CCCCO[C@H](CN(C)C(=O)Nc2ccc3c(c2)OCO3)[C@@H](C)CN([C@H](C)CO)C(=O)c2cc(NC(=O)Nc3ccc(C(F)(F)F)cc3)ccc2O1	i	-0.7	6.6	-2.7
O=C(c1cccc(F)c1)N1CC(=O)N2[C@H](C1)[C@H](c1ccc(/C=C/c3ccccc3)cc1)[C@@H]2CO	i	0.0	-27.8	15.9
CO[C@H]1CN(C)C(=O)c2cc(NC(=O)Nc3cccc(F)c3)ccc2OC[C@H](C)N(C(=O)Nc2c(C)noc2C)C[C@@H]1C	i	0.0	1.3	0.4
C[C@@H]1CCCCO[C@H](CN(C)C(=O)Nc2cccc3ccccc23)[C@@H](C)CN([C@H](C)CO)C(=O)c2cc(NC(=O)Cc3ccccc3)ccc2O1	i	4.1	3.4	4.2
The list continues:
SMILES	FGF22 binding	Ecoli rRNA inh	Ecoli rRNA inh OD600	Ecoli rRNA inh RFP
COc1ccc2c3c([nH]c2c1)[C@@H](CO)N(C(=O)CN1CCOCC1)CC31CN(C(=O)NC(C)C)C1	i	5.9	11.7	-1.3
CCCNC(=O)Nc1ccc2c(c1)OC[C@@H](C)N(CCC(F)(F)F)C[C@H](C)[C@H](OC)CN(C)C2=O	i	-5.4	-2.9	-0.4
COc1cccc(C(=O)Nc2ccc3c(c2)C(=O)N(C)C[C@@H](OC)[C@H](C)CN(CCc2ccccc2)[C@@H](C)CO3)c1	i	-2.1	-5.9	6.0
C[C@@H]1CN([C@H](C)CO)C(=O)Cc2cc(NC(=O)Nc3ccccc3)ccc2O[C@@H]1CN(C)Cc1ccccc1	i	0.9	-28.3	14.4
COc1ccc(NC(=O)N(C)C[C@@H]2Oc3ccc(NC(=O)Nc4ccccc4)cc3CC(=O)N([C@H](C)CO)C[C@@H]2C)cc1	i	-0.1	-4.3	-0.3
C[C@@H]1CN([C@H](C)CO)C(=O)c2cc(NC(=O)Nc3ccc(F)cc3)ccc2O[C@@H]1CN(C)Cc1ccc(C(F)(F)F)cc1	i	-8.7	-40.8	4.1
CNC(=O)C[C@H]1CC[C@H]2[C@H](COc3ccc(NC(=O)c4ccc5c(c4)OCO5)cc3C(=O)N2C)O1	i	-3.5	4.3	-1.8
CN1c2ccc(C#Cc3cccnc3)cc2[C@H]2[C@H](CCN2S(=O)(=O)c2ccccc2F)[C@@H]1CO	i	-2.2	0.4	5.8
COc1ccc(NC(=O)Nc2ccc3c(c2)CC(=O)N([C@H](C)CO)C[C@@H](C)[C@@H](CN(C)S(=O)(=O)c2cccs2)O3)cc1	i	-2.2	-14.5	1.5
CC=Cc1ccc2n(c1=O)C[C@H]1[C@H](CO)[C@@H](C(=O)Nc3ccc(-c4ccccc4)cc3)N(C(C)=O)[C@@H]21 (mixture of isomers)	i	2.6	-10.4	10.3
C[C@H](CO)N1C[C@H](C)[C@H](CN(C)C(=O)Nc2ccccc2)Oc2ccc(NC(=O)Nc3ccc4c(c3)OCO4)cc2C1=O	i	-0.8	7.1	0.5
C[C@H]1CN([C@@H](C)CO)C(=O)CCCn2nncc2CO[C@@H]1CN(C)C	i	-0.3	-2.1	-0.5
COc1ccc(S(=O)(=O)N[C@H]2C=C[C@H](CC(=O)N3CCc4ccccc4C3)O[C@@H]2CO)cc1	i	-3.2	-6.5	-0.2
COc1ccc2c(c1)[C@@H](NC(=O)c1ccncc1)[C@H](C)[C@H]2c1ccccc1	i	-16.5	-30.8	-8.7
COCC(=O)N1CC(=O)N2[C@H](C1)[C@@H](c1ccc(C#CC3CC3)cc1)[C@@H]2CO	i	4.4	10.4	-3.8
C[C@@H]1CN([C@@H](C)CO)C(=O)c2c(c3ccccc3n2C)-c2ccccc2CO[C@@H]1CN(C)C(=O)[C@H]1CCCN1C	i	6.6	-2.4	-3.3

Reprinted from the entries so far for reference:
SMILES	FGF22 binding	Ecoli rRNA inh	Ecoli rRNA inh OD600	Ecoli rRNA inh RFP
C[C@@H]1CN([C@H](C)CO)C(=O)c2cc(NC(=O)Cn3cnnn3)ccc2O[C@H]1CN(C)S(=O)(=O)c1cccs1	i	1.5	11.9	2.7
O=C(N[C@H]1CC[C@H](CCNC(=O)C2CC2)O[C@H]1CO)c1ccccn1	i	1.3	-2.4	-1.7

5 compounds from above with just FGF22 binding:
| canonical_smiles | FGF22 binding |
| --- | --- |
| O=C(N[C@H]1CC[C@H](CCNC(=O)C2CC2)O[C@H]1CO)c1ccccn1 | i |
| COc1ccc2c3c(n(C)c2c1)[C@@H](CO)N(C(=O)Nc1ccc(F)cc1)CC31CN(C(=O)CN2CCOCC2)C1 | i |
| Cc1noc(C)c1S(=O)(=O)N(C)C[C@@H]1OCCCC[C@@H](C)Oc2ccc(NC(=O)Cc3ccccc3)cc2C(=O)N([C@H](C)CO)C[C@H]1C | i |
| CCCC(=O)N1CC2(CN(C(=O)CC3CC3)C2)c2c(n(C)c3cc(OC)ccc23)[C@@H]1CO | i |
| CNC(=O)C[C@H]1CC[C@H]2[C@H](COc3ccc(NC(=O)c4ccc5c(c4)OCO5)cc3C(=O)N2C)O1 | i |
